# SARS PLP yeast: qHTS of Yeast-based Assay for SARS-CoV PLP; S. cerevisiae expressing SARS-CoV PLpro, growth rescue; control for the full effect not named in the record; Potency, µM (top dose mostly 32.9 µM), inactives show top-dose activity, positive = growth rescue; actives 0.19% (n = 330,000); also: 0% is about no effect; nearly all actives have a fitted effect of over 55% in size; growth read by luminescence after 48 h
# 2A StopGo: High Throughput Screening for Foot and Mouth Disease Virus Antivirals; actives 1.2% (n = 410,000); human cells with a luciferase reporter of 2A StopGo recoding; control for the full effect not named in the record; AID 1159524, 2015; Potency, µM (highest dose often 57.9 µM), inactives show top-dose signal change, negative = less light; active = well fitted falling curve with a large enough effect; inconclusive = small, poorly fitted or top-dose-only effect; inactive = no such curve, though single readings can be large or run the other way; tested in HEK293T cells; also: % is scaled to controls: 0 for no effect and ±100 for the full control effect; nearly all actives have a fitted effect of over 45% in size; luciferase light after 4 h
# Cruzain inh Det: qHTS Assay for Promiscuous and Specific Inhibitors of Cruzain (with detergent); Cruzipain (Trypanosoma cruzi), P25779; purified cruzain, Z-FR-AMC fluorescence, 0.01% Triton; Potency, µM, for the others: max response, negative = inhibition, hits mostly inhibitors; actives 0.43% (n = 200,000); AID 1478, 2009; active = well fitted curve in the direction sought with a large enough effect; inconclusive = small, poorly fitted or top-dose-only effect, or another doubt; inactive = no such curve, though single readings can be large; an effect the other way counts as inactive or inconclusive;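 also: plate controls were neutral wells for no effect and buffer without enzyme for full effect; nearly all actives have a fitted effect of over 40% in size; top concentration of the series not given in the record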
# Target sequence (P25779 123-467 limits assumed): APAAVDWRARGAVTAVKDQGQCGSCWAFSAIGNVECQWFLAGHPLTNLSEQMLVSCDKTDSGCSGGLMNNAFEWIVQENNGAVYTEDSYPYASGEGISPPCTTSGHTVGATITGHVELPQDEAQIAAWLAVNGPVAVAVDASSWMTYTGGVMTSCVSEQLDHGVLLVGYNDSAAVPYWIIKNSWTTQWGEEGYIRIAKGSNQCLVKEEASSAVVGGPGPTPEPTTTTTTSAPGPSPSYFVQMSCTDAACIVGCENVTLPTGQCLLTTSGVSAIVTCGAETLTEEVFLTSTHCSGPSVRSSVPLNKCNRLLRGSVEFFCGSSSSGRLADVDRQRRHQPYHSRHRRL
#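 Enzyme 1.5 nM, Z-FR-AMC 2 uM, NaOAc 100 mM pH 5.5, DTT 5 mM, Triton X-100 0.01%; 15 min RT compound preincubation; kinetic ex360/em450, 60 s delta.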
# RE007 growth inh: qHTS Assay for Inhibitors of the HIV-1 protein Vpr | actives 0.21% (n = 360,000) | S. pombe RE007 Vpr strain, BacTiter-Glo ATP luminescence, 24 h; control for the full effect not named in the record | Potency, µM (highest dose often 92.2 µM), without a hit: at the top dose activity change, negative = less growth; active = well fitted falling curve with a large enough effect; inconclusive = small, poorly fitted or top-dose-only effect; inactive = no such curve, though single readings can be large or run the other way;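 also: % is scaled to controls: 0 for no effect and ±100 for the full control effect; nearly all actives have a fitted effect of over 50% in size; the assay follows cell death caused by Vpr and the record does not say whether a fall means rescue or toxicity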
#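 Fission yeast RE007 carrying one integrated HIV-1 vpr copy, seeded at OD 0.01 in PMG+AL medium with 23 nL pinned compound. Grown 24 h at 30 degrees; viability read by BacTiter-Glo luminescence after 5 min.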
# NS1 function inh: qHTS Assay for Inhibitors of Influenza NS1 Protein Function | S. cerevisiae slowed by influenza A NS1, growth recovery by OD600 | Potency, µM (top dose mostly 46.1 µM), for the others: at the highest dose activity, positive = more growth | actives 0.4% (n = 270,000); also: actives are rising curves; nearly all actives have a fitted effect of over 50% in size
#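 Recovery from NS1-induced slow growth read by OD600 in budding yeast switched to galactose assay medium (pH 6.0, -URA) at 1:100 dilution. Compound 23 nl per well; the matching strain lacking NS1 serves as control.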
# Marburg entry inh: qHTS for inhibitors of binding or entry into cells for Marburg Virus. Marburg virus pseudotyped entry inhibition, cell reporter; control for the full effect not named in the record; about a third of the inactives were read at about 46 µM. AID 540276, 2011. actives 1.8% (n = 300,000). Potency, µM (highest dose often 37.8 µM), inactives show at the highest dose activity change, negative = inhibition, most hits filed as inhibitors; active = well fitted inhibition curve with a large enough effect; inconclusive = small, poorly fitted or top-dose-only effect, or effect the other way; inactive = flat fitted curve, though single readings scatter; tested in HEK293 cells; about a fifth of its hits are not listed in these tables; also: % is scaled to controls: 0 for no effect and ±100 for the full control effect; luciferase read-out
# Cruzain inh noDet: qHTS Assay for Promiscuous and Specific Inhibitors of Cruzain (without detergent); purified cruzain, Z-FR-AMC fluorescence, no detergent; Cruzipain (Trypanosoma cruzi), P25779; Potency, µM, without a hit: max response, negative = inhibition, most hits filed as inhibitors; actives 2.3% (n = 200,000); AID 1476, 2009; active = well fitted curve in the direction sought with a large enough effect; inconclusive = small, poorly fitted or top-dose-only effect, or another doubt; inactive = no such curve, though single readings can be large; an effect the other way counts as inactive or inconclusive;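 also: plate controls were enzyme without inhibitor for no effect and buffer without enzyme for full effect; nearly all actives have a fitted effect of over 40% in size; top concentration of the series not given in the record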
#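 Purified cruzain at 1.5 nM, pre-incubated 15 min with compound at room temperature in 100 mM sodium acetate pH 5.5, 5 mM DTT, 0.00005% Triton X-100. Reaction started with 2 uM Z-FR-AMC; AMC fluorescence increase over 60 s gives rate.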
# Lassa entry inh: qHTS for Inhibitors of binding or entry into cells for Lassa Virus. Lassa virus pseudotype entry inhibition, cell reporter; control for the full effect not named in the record. Potency, µM (series often up to 37.9 µM), inactives show top-dose activity change, negative = inhibition, hits mostly inhibitors. actives 1.2% (n = 300,000). AID 540256, 2011; active means well fitted inhibition curve with a large enough effect; inconclusive means small, poorly fitted or top-dose-only effect, or effect the other way; inactive means flat fitted curve, though single readings scatter; tested in HEK293 cells; also: % is scaled to controls: 0 for no effect and ±100 for the full control effect; nearly all actives have a fitted effect of over 50% in size; luciferase read-out
# An asterisk follows results filed as active; u = inconclusive; x = not tested or not shown; & = joins results of further samples; [ ] = remark or other dose. Unless noted, calls follow the shape of the dose curve; as a rule, active means well fitted rising curve with a large enough effect; inconclusive means small, poorly fitted or top-dose-only effect; inactive means no such curve, though single readings can be large or run the other way. Potency is read from the fitted curve at half-maximal effect. Hits appear at their usual frequency; 4.7% or so of the library scored in one or more.
molecule | Lassa entry inh | Cruzain inh Det | Cruzain inh noDet | SARS PLP yeast | RE007 growth inh | Marburg entry inh | 2A StopGo | NS1 function inh
O=C(/C=C\c1cccs1)N1CCN(Cc2ccc3c(c2)OCO3)CC1 | -3% | x | x | -2% | -9% | -14%[46.1 µM] | -11% | x
COc1ccc(NC2=NC(C)(C)CS2)cc1 | 10%[46.1 µM] | x | x | 0% | -10% | 1%[46.1 µM] | 22% | 2%
COc1ccccc1NC(=O)CSc1nnc(-c2ccncc2)n1CC1CCCO1 (centres undefined) | 13% | 6.3% | -3% | -1% | 14% | 7%&7% | -10% | 1%
CC(=O)C1=C(C)OC2(O)c3ccccc3C(=O)C12O (centres undefined) | x | x | x | -1% | 17% | x | -5% | 1%
OCC(O)CN(c1ccccc1)c1ccccc1 (centres undefined) | -2% | x | x | 0% | 7% | u | -4% | x
CCC(Sc1nnc2c(n1)[nH]c1ccccc12)C(=O)Nc1ccccc1OC (centres undefined) | 15%[46.1 µM] | -8.3% | -7% | x | x | u | 19% | x
CCC(=O)Nc1ccc2c(c1)nc1n2CCSC1 | 7% | 2.2% | 3% | -1% | 16% | u | 46% | 1%
COc1ccc(N2CCN(C(=O)CSc3n[nH]c(-c4ccccc4Cl)n3)CC2)cc1 | 23%[46.1 µM] | -0.2% | -10% | x | x | x | -14% | x
CSC1=N/C(=C\c2ccc3c(c2)OCO3)C(=O)S1 | -1% | 0.1% | u | -6% | 1% | -4% | -22% | -8%
OC(COc1ccc2ccccc2c1Br)Cn1cnc(-c2ccccc2)c1 (centres undefined) | 8% | -13% | -9% | -48% | u | -7% | -21% | -113%
N#CCCn1c(SCC(=O)NCCc2ccc(F)cc2)nc2ccccc21 | 5% | 1.2% | -2% | -1% | -6% | 1% | -15% | -2%
COc1cc(OC)c(C(=O)OCC(=O)NCCc2ccccc2)cc1OC | -8% | x | x | 0% | 18% | 1%[46.1 µM] | -4% | -6%
CCOC(=O)c1ccc(NC(=S)NCc2ccco2)cc1 | x | x | x | -2% | 0% | x | 22% | -7%
COc1ccc(C2CC(c3ccccc3)=NN2c2ccc(C(N)=O)cc2)cc1 (centres undefined) | u | x | x | -16% | -8% | u | u | x
COc1ccccc1N1CCN(CC(O)c2ccccc2)CC1 (centres undefined) | 7% | x | x | 0% | 1% | -9%[46.1 µM] | -6% | -19%
CCCNC(=O)C1CC(c2cccc(F)c2)=NO1 (centres undefined) | x | x | x | -3% | 3% | x | 10% | 3%
Cc1cccc(C(=O)OCC(=O)Nc2nnc(-c3ccccc3)o2)c1O | 0% | x | x | -8% | 22% | u | -2% | x
O=C(NCc1ccco1)c1ccc2c(c1)N(Cc1ccccc1)C(=O)c1ccccc1S2(=O)=O | -18%[46.1 µM] | -1.8% | -13% | x | x | 1%[46.1 µM] | -9% | x
CCOC(=O)C(C)Sc1nc2c(c(=O)[nH]c(=O)n2C)n1Cc1ccc(Cl)cc1 (centres undefined) | x | 4.6% | 4% | 2% | -8% | x | u | 0%
O=C(Cc1ccccc1)Nc1ccccc1N1CCOCC1 | 3% | 0.4% | -3% | 4% | 2% | -1% | -13% | -4%
Cc1cccc(NC(=O)c2ccccc2NC(=O)C(C)(C)C)n1 | -12% | 0.2% | -6% | 2% | -12% | u | -1% | -11%
CN(C(=O)Nc1ccc(S(=O)(=O)N(C)C)cc1)C1CCCCC1 | -5% | 2.5% | 9% | 7% | 16% | 6% | 26% | 3%
CCCC(=O)NC(c1ccc(C)cc1)c1ccc2cccnc2c1O (centres undefined) | u | x | x | u | u | 2.8µM* | -16% | -144%
CCN(CC)S(=O)(=O)c1ccc(NC(=O)C(OC)c2ccccc2)cc1 (centres undefined) | -1% | 0.1% | -3% | x | -23% | -4% | -2% | 0%
Cc1ccccc1-c1nc(C#N)c(NCc2ccco2)o1 | 5%[46.1 µM] | x | x | -2% | 0% | -6%[46.1 µM] | 16% | x
O=C(NNC(=S)Nc1ccc(F)cc1F)c1ccco1 | x | x | x | u | 15% | x | 0% | -9%
Cn1nc(C(=O)Nc2ccc(S(=O)(=O)N3CCOCC3)cc2)c2ccccc2c1=O | x | x | x | -1% | -10% | x | -14% | 0%
C/C(=N\NC(=S)NC(C)C)c1ccccc1OC(F)F | u | x | x | 3% | -10% | -8%[46.1 µM] | -11% | x
O=C(O)COc1c(Cl)cc(/C=C2\NC(=O)NC2=O)cc1Br | 20% | x | x | -1% | 2% | 11%[46.1 µM] | -5% | 3%
Cc1ccc(-c2nn(-c3ccccc3)cc2CN(Cc2ccccc2)C(=O)CCC(=O)O)o1 | -17% | -11% | u | 1% | -10% | -8%&-8% | -16% | u
O=[N+]([O-])c1ccccc1-c1cc(-c2cc(Cl)ccc2O)n[nH]1 | u | -11% | -5% | -68% | 1% | 5% | 4% | -48%
NC(=NCCc1c[nH]c2ccccc12)NS(=O)(=O)c1ccc2ccccc2c1 | u | -7.5% | 4% | 3% | -2% | -14% | 0% | 14%
O=C(Cn1c(=O)n(CC2CCCO2)c(=O)c2ccccc21)c1ccccc1 (centres undefined) | -4% | -1.7% | -4% | 17% | -16% | u | -23% | -5%
NS(=O)(=O)c1ccc(NC(=O)Nc2cccc3ccccc23)cc1 | x | 0.4% | 5% | -2% | 7% | x | -4% | -6%&12%
CCn1cnc2scc(-c3ccc(OC)cc3)c2c1=O | x | x | x | 1% | 10% | x | -17% | -11%
COc1ccc(C)cc1NC(=O)CN1C(=O)CCc2cc(S(=O)(=O)N3CCOCC3)ccc21 | u | -0.8% | u | x | x | x | 2% | x
COc1ccc(CCNC(=O)C(=O)Nc2ccc(C)c(C)c2)cc1 | -9%[46.1 µM] | -0.1% | 0% | x | x | x | 20% | x
CCC(=O)Nc1ccc(CC)cc1-c1nc2ccccc2n(CC(=O)Nc2cccc(OC)c2)c1=O | 4%[46.1 µM] | -2.7% | -3% | x | x | 0%[46.1 µM] | -23% | x
Cc1cccc(NC(=O)C(=O)NCC(c2cccnc2)N2CCOCC2)c1 (centres undefined) | -10%[46.1 µM] | -11% | 25% | x | x | x | -8% | x
O=C1Nc2cc(Br)ccc2C1(O)c1ccccc1O (centres undefined) | -22%[46.1 µM] | x | x | 0% | 10% | u | 10% | 0%

# Copied from the list.
# `CCCC(=O)NC(c1ccc(C)cc1)c1ccc2cccnc2c1O` (centres undefined) – Marburg entry inh = 2.8µM*
# `COc1ccc(N2CCN(C(=O)CSc3n[nH]c(-c4ccccc4Cl)n3)CC2)cc1` – 2A StopGo = -14%
# `O=[N+]([O-])c1ccccc1-c1cc(-c2cc(Cl)ccc2O)n[nH]1` – RE007 growth inh = 1%

# The main list resumes; the 4 compounds before the break are reprinted first.
molecule | Lassa entry inh | Cruzain inh Det | Cruzain inh noDet | SARS PLP yeast | RE007 growth inh | Marburg entry inh | 2A StopGo | NS1 function inh
COc1ccc(CCNC(=O)C(=O)Nc2ccc(C)c(C)c2)cc1 | -9%[46.1 µM] | -0.1% | 0% | x | x | x | 20% | x
CCC(=O)Nc1ccc(CC)cc1-c1nc2ccccc2n(CC(=O)Nc2cccc(OC)c2)c1=O | 4%[46.1 µM] | -2.7% | -3% | x | x | 0%[46.1 µM] | -23% | x
Cc1cccc(NC(=O)C(=O)NCC(c2cccnc2)N2CCOCC2)c1 (centres undefined) | -10%[46.1 µM] | -11% | 25% | x | x | x | -8% | x
O=C1Nc2cc(Br)ccc2C1(O)c1ccccc1O (centres undefined) | -22%[46.1 µM] | x | x | 0% | 10% | u | 10% | 0%
CC(=O)c1ccc(-c2ccc(C(=O)NCC3CCCO3)o2)cc1 (centres undefined) | -18%[46.1 µM] | x | x | -3% | 1% | -2% | 3% | x
Cc1ccc(C)c(NC(=O)CSc2nnc3[nH]c(=O)cc(-c4ccccc4)n23)c1 | 25%[46.1 µM] | -0.4% | 2% | x | x | x | 21% | x
O=C(Cn1ncc2c3ccccc3n(Cc3ccccc3)c2c1=O)NCc1cccs1 | 2%[46.1 µM] | -3.5% | 0% | x | x | 16%[46.1 µM] | -4% | x
Cc1c(NC(=O)CSc2nc(-c3ccco3)cc(C(F)(F)F)n2)c(=O)n(-c2ccccc2)n1C | -12% | -1.7% | 5% | 1% | 1% | 7%&7% | -23% | -2%
COCCCn1c2nc3ccccc3nc2c2c(=O)n(Cc3ccc(Cl)cc3)cnc21 | -7% | -5.0% | u | -1% | -10% | 4%[46.1 µM] | u | -12%
FC(F)(F)C1=CC(c2ccc(Cl)cc2)=NCCN1 | 14% | -7.3% | -10% | -2% | -14% | -25% | -19% | -8%
O=C(Nc1ccc2c(c1)OCO2)C1CC(=O)N(c2cccc(Cl)c2)C1 (centres undefined) | 10% | x | x | 1% | -4% | 14%[46.1 µM] | 22% | -7%
CC(=O)N1CCN(CC(O)COc2ccc(OCc3ccccc3)cc2)CC1 (centres undefined) | 16% | 2.2% | 10% | 3% | -1% | -25% | x | u

# Another view of four compounds above.
# Screens in order – Lassa entry inh	Cruzain inh Det	Cruzain inh noDet	SARS PLP yeast	RE007 growth inh	Marburg entry inh	2A StopGo	NS1 function inh
- COCCCn1c2nc3ccccc3nc2c2c(=O)n(Cc3ccc(Cl)cc3)cnc21
 : -7%	-5.0%	u	-1%	-10%	4%[46.1 µM]	u	-12%
- FC(F)(F)C1=CC(c2ccc(Cl)cc2)=NCCN1
 : 14%	-7.3%	-10%	-2%	-14%	-25%	-19%	-8%
- O=C(Nc1ccc2c(c1)OCO2)C1CC(=O)N(c2cccc(Cl)c2)C1 (centres undefined)
 : 10%	x	x	1%	-4%	14%[46.1 µM]	22%	-7%
- CC(=O)N1CCN(CC(O)COc2ccc(OCc3ccccc3)cc2)CC1 (centres undefined)
 : 16%	2.2%	10%	3%	-1%	-25%	x	u

# Compound activity as filed in PubChem.
